Bioassay records from PubChem BioAssay.
Mtb hypoxia inh: reduces hypoxia-regulated biosensor signal in M. tuberculosis | fluorescence inhibition, % (no concentration beside the values) | M. tuberculosis hypoxia-regulated fluorescent reporter, fluorescence | 300,000 compounds, 0.1% hits;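 active = 35 to 45% if threefold the growth effect, above 45% if 1.5-fold the growth effect; inactive = the rest, general growth blockers included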;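 note: wells of about 50 µL received 100 nL stock; 0% = vehicle wells and 100% = reference inhibitor wells; whole bacteria with a GFP reporter of the hypoxia response; strong numbers were not always called active; many hits fall short of the cut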
Sa RN4220 lethal: kills Staphylococcus aureus RN4220. S. aureus RN4220 growth, OD600, 16 h. inhibition, % (no concentration beside the values). 330,000 compounds, 0.33% hits. AID 1259311;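 active = z-score of -3 or lower and OD600 up to 0.18 on both plates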;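 note: plate controls were untreated cells for no effect and reference antibiotic for full effect; stock transfer was 100 nL into about 80 µL; one replicate is shown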
PrP UTR inh: suppresses PrP 5' UTR mRNA reporter expression. cell-based PrP 5' UTR mRNA reporter, plate reader. 340,000 compounds, 0.35% hits. AID 488862. inhibition, % (no concentration beside the values);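 active = every replicate at 50% or more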;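 note: 0 = median of the neutral control wells; tested in H4 reporter cells; numbers are from one replicate; inactives centre near -14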
BJeLR viability: kills HRASV12-expressing BJeLR cells; BJeLR (HRASV12) viability, CellTiter-Glo ATP luminescence, 48 h; reference of the scale not given here; inhibition, % (no concentration beside the values); 300,000 compounds, 0.17% hits; AID 1554;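 active = replicate mean above 50%; inconclusive = above 50% but judged a plate artefact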;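 note: 50 nL library stock added to about 25 µL; numbers are from one replicate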
Sa ugtP lethal: growth inhibition of S. aureus ugtP deletion strain | AID 1259309 | S. aureus RN4220 ugtP deletion, OD600 growth, 16 h; some inactives read as strong as hits | growth inhibition, % (test concentration not listed) | 330,000 compounds, 0.54% hits;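 active = z-score under -3 and OD600 up to 0.15 on both plates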;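 note: plate controls were untreated wells for no effect and antibiotic for full effect; wells of about 80 µL received 100 nL stock; the first replicate is given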
Autofluor counter: compound fluorescence in toxin protease inhibitor counterscreen | fluorescence intensity (no concentration beside the values) | 360,000 compounds, 3.1% hits | compound autofluorescence counterscreen, microsphere flow cytometry; active compounds read high | AID 624483;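 active = at least 3 SD above the mean of all compounds, about 16000 in these data; inconclusive = too few beads counted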;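 note: 100 nL of 1 mM stock went into each well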
Mtb hypoxia inh growth: further read-out of Mtb hypoxia inh, marked with its call; growth inhibition, %; measured here: M. tuberculosis growth (absorbance);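 0% = vehicle and 100% = reference antibiotic; read after six days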
* = called active by the depositor; ? = inconclusive; . = not tested or not shown.

The first 3 records (preview)
Every second line gives: Mtb hypoxia inh, Mtb hypoxia inh growth, Sa RN4220 lethal, PrP UTR inh, BJeLR viability, Sa ugtP lethal, Autofluor counter
> COc1ccc(CCN2C(=NC(C)=O)SC3CS(=O)(=O)CC32)cc1OC (configuration not stated)
  10, 3, 5.4, -24, 2, 1, 5658
> CCNC(=O)C(=O)Nc1cc2c3c(c1)CCC(=O)N3CCC2
  8, 2, 4.3, -4, 1, 5, 5293
> COC(=O)c1ccc(N2NC(=O)C(=Cc3ccc(-c4ccc(Cl)c(C(=O)O)c4)o3)C2=O)cc1
  6, -3, 3.9, ., ., -4, .

This part in full, repeating the preview:
Every second line gives: Mtb hypoxia inh, Mtb hypoxia inh growth, Sa RN4220 lethal, PrP UTR inh, BJeLR viability, Sa ugtP lethal, Autofluor counter
> COc1ccc(CCN2C(=NC(C)=O)SC3CS(=O)(=O)CC32)cc1OC (configuration not stated)
  10, 3, 5.4, -24, 2, 1, 5658
> CCNC(=O)C(=O)Nc1cc2c3c(c1)CCC(=O)N3CCC2
  8, 2, 4.3, -4, 1, 5, 5293
> COC(=O)c1ccc(N2NC(=O)C(=Cc3ccc(-c4ccc(Cl)c(C(=O)O)c4)o3)C2=O)cc1
  6, -3, 3.9, ., ., -4, .
> Cc1cccc(N2C(=O)/C(=C/c3ccc(N4CCN(C)CC4)o3)C(=O)NC2=S)c1C
  6, 8, 0.1, -3, -13, 0, 2999
> CCOC(=O)C1CCN(C(=O)Nc2ccc(Cl)cc2)CC1
  ., ., -1.0, -19, -21, 5, 2770
> Cc1cc(C)n2nc(SCC(=O)N3CCC(C(=O)O)CC3)nc2n1
  -5, 7, 1.0, -9, ., 4, 3840
> Cc1ccc2c(c1)N(CC(=O)N1CCCc3ccccc31)C(=O)CO2
  13, -1, 2.7, -1, -5, -2, 16620*
> Cc1cccc(CN2CCCC(C(=O)c3ccc4c5c(cccc35)CC4)C2)n1 (configuration not stated)
  -6, 4, 10, -4, 8, 3, 4891
> CC(NCc1ccccc1O)C12CC3CC(CC(C3)C1)C2 (configuration not stated)
  -1, 13, -2.0, -5, 4, -12, 3564
> CN(C)c1cccc2c1c(NC(=O)c1ccc(Cl)cc1)nn2C
  14, 17, 4.2, -21, 8, -10, 6213
> Cc1ccnc(NC(=O)c2ccc(COc3c(F)c(F)cc(F)c3F)o2)c1
  9, -10, 5.5, -23, 2, 4, 3832
> COc1ccc(CN(C)Cc2cc(=O)n3ccsc3n2)c(OC)c1OC
  5, 4, 17, -52, -15, -66, 4192
> NC(=O)C1CCN(C(=O)Cc2ccc(-c3ccccc3)cc2)CC1
  -2, -8, 4.9, -31, -6, 12, 3602
> CN(C)N1C(N)=C(C#N)C(c2ccccc2Cl)C2=C1CCCC2=O (configuration not stated)
  8, 4, 3.1, -20, 1, 5, 3470
> CCOc1cc(/C=C2/NC(=O)N(CC(=O)Nc3cccc(C)c3)C2=O)ccc1OCC(N)=O
  9, 2, 5.1, -7, 6, 1, 4533
> CS(=O)(=O)N(CC(=O)NC1CCCC1)Cc1ccc(F)cc1
  -4, 15, 1.5, -36, 8, 4, 2596
> O=C(/C=C/c1ccc2c(c1)OCO2)NCc1ccc(F)cc1
  ., ., ., -10, 4, ., 2564
> CC(C)n1cnnc1SCC(=O)NC(=O)c1ccccc1
  9, 4, -0.2, -31, -2, 0, 5538
> CCOC(=O)c1c(N2C(=O)C3C4C=CC(O4)C3C2=O)sc2c1CCCC2 (configuration not stated)
  ., ., ., 7, 8, ., 3269
> Fc1ccc(COc2ccc(Br)cc2CNCc2ccncc2)cc1
  0, 6, -0.9, 4, 7, -7, 8031

(continued)
Every second line gives: Mtb hypoxia inh, Mtb hypoxia inh growth, Sa RN4220 lethal, PrP UTR inh, BJeLR viability, Sa ugtP lethal, Autofluor counter
> COc1nc(NN=Cc2ccc(-c3ccccc3[N+](=O)[O-])o2)nc(N2CCOCC2)n1
  5, 5, 6.4, ., ., -9, .
> CCOC(=O)c1nn(-c2ccccc2)c(=O)cc1OCC(=O)Nc1cc(C)ccc1C
  -5, 8, 8.2, -16, 12, 9, 5676
> CCc1cc2c(=O)n(-c3ccccc3)cnc2s1
  ., ., 6.1, -19, 7, -3, 2648
> COc1cccc(C2c3c(-c4ccccc4)n[nH]c3C(=O)N2c2ccc(C(=O)O)cc2)c1 (configuration not stated)
  7, 5, 7.8, -32, -6, 7, 5659
> Cc1ccc(S(=O)(=O)NCC(=O)N2CCc3ccccc3C2)cc1
  16, 1, 2.1, -32, -5, 5, 4140
> CC(=NNC(=O)C1CC1)c1cccs1
  -4, 17, 0.1, ., ., 0, .
> CCn1ccc(=N)cc1
  ., ., 1.3, 0, -14, -1, 2597
> O=C(C[N+]1(CC#Cc2ccccc2)CCOCC1)c1ccc(Cl)cc1
  8, 9, 7.3, -25, 1, 8, 4386
> COCCOC(=O)c1c(C)nc(SCC(=O)Nc2cccc3ccccc23)c(C#N)c1-c1ccco1
  7, -7, 5.0, -6, -1, -4, 3336
> NC(=S)NNC(=O)Nc1ccc(Cl)c(Cl)c1
  ., ., ., -27, 4, ., 2080
> Cc1ccc(-n2c(C)cc(C3=NNC(=NC4CC4)SC3)c2C)cc1C
  9, 7, -1.9, 23, 14, -25, 2260
> OC(c1ccc(F)cc1)(c1ccc(F)cc1)C1CCCN1 (configuration not stated)
  3, -1, -2.1, ., ., -8, .
> C=C1CCN([C@@H](CC(C)C)C(=O)NCc2ccc(OC)cc2)S(=O)(=O)c2ccccc21
  ., ., ., -17, 4, ., 3789
> Oc1c(Br)cc(Br)cc1CNn1cnnc1
  1, 0, 3.4, -12, 10, -4, 3473
> O=C1CCCN1CCCn1cnc2c([nH]c3ccc(F)cc32)c1=O
  8, 8, -8.1, -6, 2, -7, 2490
> COC(=O)c1ccc(CSc2nc3ccccc3o2)cc1
  -4, -5, 9.9, -32, -1, 16, 3183
> COc1ccc(NC(=O)C(c2ccccc2)N2CCN(c3ccccn3)CC2)cc1Cl (configuration not stated)
  1, 6, 5.1, -3, -1, 4, 2680
> O=C(COC(=O)c1cccs1)Nc1nnc(-c2ccccc2)o1
  7, 10, 5.2, -8, -2, 2, 5605
> C=CCn1c(=S)[nH]c2cc(C(=O)Nc3ccc(OC)c(OC)c3)ccc2c1=O
  -3, 0, 2.4, -25, 0, -2, 3871
> OC(Cc1ccncc1)c1ccccc1Cl (configuration not stated)
  8, 9, 5.6, -17, ., 2, 4493

(cont.)
Every second line gives: Mtb hypoxia inh, Mtb hypoxia inh growth, Sa RN4220 lethal, PrP UTR inh, BJeLR viability, Sa ugtP lethal, Autofluor counter
> CC1CN(C(C)CO)C(=O)c2cccc(NC(=O)Cc3ccccc3)c2OC1CN(C)C(=O)NC1CCCCC1 (configuration not stated)
  11, 0, 5.6, ., ., 1, .
> CCOc1ccccc1C(=O)NCC(=O)Nc1ncccc1C
  ., ., ., -6, 0, ., 4137
> COc1cc(/C=N/NC(=O)c2cc(O)cc(O)c2)ccc1OC(=O)c1ccccc1
  ., ., ., 1, 11, ., 6070
> COc1ccc(-n2nnnc2SCC(=O)Nc2ccc3c(c2)OCCO3)c(OC)c1
  6, 9, -1.0, -16, 19, -7, 12775
> Cc1cc2oc(C(=O)Nc3ccc(S(=O)(=O)Nc4onc(C)c4C)cc3)cc(=O)c2cc1Cl
  4, 5, 2.0, -3, -11, 7, 3799
> CC(Sc1nnc(N)s1)C(=O)Nc1nccs1 (configuration not stated)
  0, -1, 3.3, -14, 5, 5, 5760
> Cc1cccc(OCCn2nc(C(=O)O)c3ccccc3c2=O)c1
  ., ., 6.3, -25, -3, -2, 5317
> CCCCC1=NN(C(=O)c2ccncc2)C(O)(C(F)(F)F)C1 (configuration not stated)
  12, -5, 2.2, ., -4, 5, 6014
> COC(=O)c1sc(N)c(C(=O)OC)c1CSc1nnnn1C
  ., ., 0.0, -13, -6, -5, 4234
> Cc1cc(=O)oc2cc(NC(=O)CCC(=O)O)ccc12
  5, 2, 3.0, -3, 22, 3, 11380
> CC1(C(O)(C#CCN2CCCCC2)c2ccccc2)CCCC1 (configuration not stated)
  0, 0, -2.1, -12, 4, 1, 4251
> Cc1ccc(NS(=O)(=O)c2c(C(=O)N3CCCCCC3)c(C)n(C)c2C)cc1C
  5, 3, 1.4, 7, -3, 8, 5847
> Cn1c(=O)c2[nH]cnc2n(-c2ccccc2)c1=O
  ., ., 0.2, -14, -7, 0, 4445
> COc1ccc(C=NNC(=O)CSc2nnc(CCCc3ccc(OC)c(C)c3)o2)cc1
  4, 1, -9.1, ., ., -5, .
> C/C(C=Nn1c(-c2cc(C)[nH]n2)n[nH]c1=S)=C\c1ccco1
  12, 8, 5.2, ., ., -11, .
> CCn1c(Cc2ccccc2)nnc1SC(C)C(=O)NC1CC1 (configuration not stated)
  -3, -3, 0.2, -16, -8, 5, 5049
> O=C(Cc1ccccc1)N1CCC(C(=O)N2CCN(c3ccc(F)cc3)CC2)CC1
  -1, 3, -13, -14, 3, 0, 3322
> Cc1ccc(C(=O)O)cc1S(=O)(=O)N1CCCC1
  12, 15, 1.6, -11, -10, 0, 4088
> Cc1ccc(NC(=S)N(CCCN2CCOCC2)Cc2cccs2)c(C)c1
  ., ., ., -15, 6, ., 6905
> Cc1ccc(NC(=O)c2cc(=O)[nH]c3ccccc23)cc1C
  5, -6, -3.0, -15, 0, 7, 3387

Next section.
Every second line gives: Mtb hypoxia inh, Mtb hypoxia inh growth, Sa RN4220 lethal, PrP UTR inh, BJeLR viability, Sa ugtP lethal, Autofluor counter
> O=C(O)c1ncsc1-c1ccccc1
  8, -2, -0.9, -12, 0, 1, 4949
> COc1ccc(Cc2nc3ccc(C(=O)NCC4COCCO4)cc3o2)cc1 (configuration not stated)
  5, 2, 4.6, -5, -3, 8, 4262
> Nc1c(C(=O)NCc2ccco2)c2nc3ccccc3nc2n1CCc1ccccc1
  2, 4, -9.3, -19, -7, 48, 2432
> C=CCn1c(SCC(=O)NC2CC2)nnc1-c1cccc(OC)c1
  -4, -4, -0.8, -13, 0, 3, 6635
> Cc1ccc(OP(=O)(O)Oc2ccc(C)cc2)cc1
  ., ., ., -29, 16, ., 3822
> Cc1cc(N(CN2CCCC2=O)C(=O)c2ccc(OC(C)C)cc2)no1
  11, 2, 15, -28, 2, 4, 4922
> CCOC(=O)c1c(C)[nH]c(C(=O)OCC(=O)NCc2ccc(F)cc2)c1C
  2, 4, 5.7, -19, ., -4, ?
> COCCN(C(=O)CNC(=O)c1ccco1)C(C(=O)NC1CCCCC1)c1cccc(OC)c1 (configuration not stated)
  ., ., -2.7, -23, -19, 3, 4667
> CCC(C)(C)NC(=O)C(c1ccc(OC)cc1)N(CCOC)C(=O)CCC(=O)Nc1nccs1 (configuration not stated)
  3, 5, 5.6, -27, -1, 14, 2163

4 of the compounds above, as labelled records:
COc1ccc(Cc2nc3ccc(C(=O)NCC4COCCO4)cc3o2)cc1 (configuration not stated)
- Mtb hypoxia inh: 5
- Mtb hypoxia inh growth: 2
- Sa RN4220 lethal: 4.6
- PrP UTR inh: -5
- BJeLR viability: -3
- Sa ugtP lethal: 8
- Autofluor counter: 4262

CCOC(=O)c1c(C)[nH]c(C(=O)OCC(=O)NCc2ccc(F)cc2)c1C
- Mtb hypoxia inh: 2
- Mtb hypoxia inh growth: 4
- Sa RN4220 lethal: 5.7
- PrP UTR inh: -19
- BJeLR viability: .
- Sa ugtP lethal: -4
- Autofluor counter: ?

O=C(O)c1ncsc1-c1ccccc1
- Mtb hypoxia inh: 8
- Mtb hypoxia inh growth: -2
- Sa RN4220 lethal: -0.9
- PrP UTR inh: -12
- BJeLR viability: 0
- Sa ugtP lethal: 1
- Autofluor counter: 4949

Nc1c(C(=O)NCc2ccco2)c2nc3ccccc3nc2n1CCc1ccccc1
- Mtb hypoxia inh: 2
- Mtb hypoxia inh growth: 4
- Sa RN4220 lethal: -9.3
- PrP UTR inh: -19
- BJeLR viability: -7
- Sa ugtP lethal: 48
- Autofluor counter: 2432
